Screens deposited in PubChem by several laboratories.
RanGTP-Imp inh: inhibitors of RanGTP-importin-beta interaction, primary screen, biochemical, FRET, CFP-Ran, YFP-importin-beta, homogeneous; cell-free CFP-Ran/YFP-importin-beta FRET ratio; inhibition, % (concentration not given with the values); 300,000 compounds, 1.1% hits;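 active = most replicates above 15%; inconclusive = exactly half above 15%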;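 note: 0% = DMSO wells and 100% = Ran loaded with GDP instead of GTP; wells of about 40 µL received 100 nL stock; the first replicate is given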
Ecoli growth: inhibitors of Escherichia coli growth; OD600, 23 h; stronger effect = lower value; OD600 absorbance (test concentration not listed); 330,000 compounds, 0.21% hits;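 active = OD600 absorbance below the run mean of sample wells minus 3.6 SD, in any replicate, cut at about 0.56 in these data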;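 note: stock transfer was 300 nL into about 60 µL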
UCH37 inh: human UCH37 deubiquitinating enzyme inhibition. inhibition, % (test concentration not listed). 330,000 compounds, 0.33% hits. Q9Y5K5. purified proteasome/UCH37, Ub-AMC cleavage fluorescence. AID 588478;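 active = mean of two replicates above 20%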;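 note: 0% = compound-free wells with enzyme and 100% = wells lacking proteasome; stock transfer was 100 nL into about 20 µL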
Target sequence (Q9Y5K5 whole entry, looked up): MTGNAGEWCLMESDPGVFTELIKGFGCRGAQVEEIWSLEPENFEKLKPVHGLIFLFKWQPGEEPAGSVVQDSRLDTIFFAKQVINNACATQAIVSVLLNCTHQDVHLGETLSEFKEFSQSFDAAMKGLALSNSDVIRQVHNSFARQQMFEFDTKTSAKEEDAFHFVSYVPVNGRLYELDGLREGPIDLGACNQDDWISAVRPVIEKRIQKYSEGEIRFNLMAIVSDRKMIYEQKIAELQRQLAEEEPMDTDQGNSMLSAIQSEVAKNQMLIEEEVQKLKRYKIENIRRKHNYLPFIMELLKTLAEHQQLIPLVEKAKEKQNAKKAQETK
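system = Proteasome-associated human UCH37 deubiquitinase | amount = 0.15 nM proteasome as dispensed | medium = pH 7.4 Tris-HCl (50 mM) with ovalbumin, ATP-MgCl2, DTT | incubation = 30 min preincubation with enzyme, 25 min cleavage at room temperature | detection = AMC fluorescence 355/460 nm | read-out basis = percent inhibition | controls = no-proteasome and no-compound wells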
FGF22 binding: binders of recombinant human FGF22 by thermal shift; Q9HCT0; SYPRO orange fluorescence; percent of sucrose octasulfate shift, DMSO zero; calls only at 9.99 µM; 340,000 compounds, 1.5% hits; AID 651658;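 active = melting point raised past a set limit in the mean and every replicate; inconclusive = no clear call; three in four hits are not shown here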
Target sequence (Q9HCT0 whole entry, looked up): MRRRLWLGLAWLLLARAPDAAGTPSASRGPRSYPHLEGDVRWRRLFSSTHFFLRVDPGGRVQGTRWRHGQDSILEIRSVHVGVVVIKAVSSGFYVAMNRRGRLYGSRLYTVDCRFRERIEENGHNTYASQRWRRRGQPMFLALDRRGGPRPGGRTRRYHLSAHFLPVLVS
HNF4A DNA FP: change in binding of human HNF4 alpha to DNA. P41235. HNF4a-FITC DNA binding, fluorescence polarization, 1 h. activity change, % at 10 µM. 360,000 compounds, 0.3% hits. AID 1224865; in the data active = activity change above about 30%, passing the limit was not always enough;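 note: controls were the assay level and a saturating level of protein; the project sought stronger binding though the title names inhibitors; some compounds called inactive have numbers as strong as hits; positive values seem to mean higher polarization but the record does not say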
Target sequence (P41235 whole entry, looked up): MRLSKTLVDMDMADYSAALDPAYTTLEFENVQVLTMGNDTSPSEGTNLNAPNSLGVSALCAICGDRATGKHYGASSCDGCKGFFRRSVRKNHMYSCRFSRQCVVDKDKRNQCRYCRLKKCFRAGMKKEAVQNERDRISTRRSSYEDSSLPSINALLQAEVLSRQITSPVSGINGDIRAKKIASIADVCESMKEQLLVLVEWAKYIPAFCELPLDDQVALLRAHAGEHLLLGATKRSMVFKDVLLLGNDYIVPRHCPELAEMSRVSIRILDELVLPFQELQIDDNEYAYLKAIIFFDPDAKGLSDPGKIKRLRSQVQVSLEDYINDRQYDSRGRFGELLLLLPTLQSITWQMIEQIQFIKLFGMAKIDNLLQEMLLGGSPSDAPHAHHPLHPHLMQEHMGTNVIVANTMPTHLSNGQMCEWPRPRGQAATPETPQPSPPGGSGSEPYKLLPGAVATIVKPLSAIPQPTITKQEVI
Vif TR-FRET: HIV-1 Vif–A3G interaction blockers – biochemical, TR-FRET, GST-Vif 1-94, biotin-A3G peptide, dose response retest, primary screen (AID 1117319); inhibition, %; hits with a dose series show IC50 in µM; 260,000 compounds, 0.57% hits; TR-FRET GST-Vif / biotin-A3G peptide binding; higher % means a stronger effect; test concentration not given here; strong numbers were not always called active;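 active = above the screen mean plus three standard deviations and confirmed in dose response; inconclusive = results disagree or hit not tested in dose response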;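 note: Vif residues 1-94 fused to GST binding biotinylated APOBEC3G peptide 110-148; 0% = full assay without inhibitor and 100% = GST in place of GST-Vif; retest series ran down from 100 µM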
AF4-AF9 inh: MLL-AF4/AF9 protein interaction inhibition; P42568; AlphaScreen, biotin-AF4 peptide binding to FLAG-AF9; inhibition, % at 10 µM; 350,000 compounds, 0.47% hits;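 active = every replicate reaching a set inhibition limit, whatever the replicate mean, cut at about 25% in these data; inconclusive = mean inhibition reaches that limit but some replicates miss it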;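 note: 0% = plate neutral control median and 100% = total signal loss; the record names both 10 and 1 µM as test concentration; the first replicate is given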
* hit, by the source's call; i = inactive; u = inconclusive; x = not tested or not shown; + = active, no number; & = joins results of further samples.

mol,FGF22 binding,HNF4A DNA FP,AF4-AF9 inh,RanGTP-Imp inh,Ecoli growth,Vif TR-FRET,UCH37 inh
O=C1CSC(c2cccc(O)c2)N1Cc1ccccc1 (stereo not drawn),i,1.0,1.6,-0.5,0.69,x,1.8
Cc1ccc(Cc2nnc(SCC(=O)Nc3c(C)cccc3C)[nH]c2=O)cc1,i,2.1,-2.6,-0.1,0.69,2%,4.3
COc1cccc(C(=O)Nc2ccccc2N2CCOCC2)c1,x,-5.2,x,u,0.75,-1%,0.4
CC(=O)Nc1ccc(S(=O)(=O)NC2=C(N3CCN(Cc4ccccc4)CC3)C(=O)c3ccccc3C2=O)cc1,i,-1.6&-0.2,41*,0.2,0.65,-3%&21%,4.0
CC(NC(=O)OCc1ccccc1)C(=O)OCN1C(=O)c2ccccc2C1=O (stereo not drawn),x,2.2,x,0.5,0.76,8%,2.4
CN(C)S(=O)(=O)c1cccc(NC(=O)C2CCN(S(=O)(=O)c3cccs3)CC2)c1,i,4.0,-4.2,x,0.69,0%,1.6
CCOC(=O)CN(C(=O)CSc1nnc(CNc2ccc(C)cc2C)o1)c1ccccc1,x,-0.5,x,4.2,0.68,2%,3.1
CC(C)COc1ccc(/C(=N/O)c2ccccc2)cc1,x,5.1,x,u,x,2%,x
O=C(Nc1ccccc1C(=O)O)c1cc(S(=O)(=O)Nc2ccccc2)ccc1Cl,+,2.5,-4.2,-1.8,x,x,x
CCc1nn2c(=O)cc(COc3ccc(/C=C4\C(=N)N5N=C(CC(C)C)SC5=NC4=O)cc3)nc2s1,x,x,x,3.0,0.69,10%,-1.0
COc1ccc(-c2[nH]ncc2/C=C(\C#N)C(=O)NC2CC2)cc1,x,-0.2,x,-2.5,0.71,2%,0.7
CN(C)C(=O)c1ccc(-n2cnc3ccccc3c2=O)cc1,i,-4.5,-3.7,1.3,0.7,-10%,2.7
CN(CCCC(=O)NCc1ccccc1)S(=O)(=O)c1ccc([N+](=O)[O-])cc1,i,0.4,-2.0,-1.3,0.71,x,6.2
CN(C)C(=O)CSc1nnc([C@H](Cc2ccccc2)NC(=O)OC(C)(C)C)o1,i,2.4,1.2,-0.3,0.71,-3%,4.4
C/C(=N\NC(=O)C(C)Sc1ccccc1)C(C)(C)C (stereo not drawn),x,0.8,x,0.7,x,5%,x
Cc1cc(C(C)(C)C)n2nc(C)c(-c3ccccc3)c2n1,i,-4.1,-0.7,4.6,0.71,3%,-207
CCOc1ccc(N(CC(=O)N2CCCC2)S(=O)(=O)c2ccc(Cl)cc2)cc1,i,0.8,0.0,-1.4,0.68,x,2.9
CN(C)CCCn1c2c(c(SCC(=O)Nc3ccc4c(c3)OCCO4)nc1=O)CCCC2,i,-1.3,-0.5,x,x,x,x
Cc1nc(-c2cccc(NS(C)(=O)=O)c2)cs1,i,2.5,1.0,0.1,0.66,0%,3.9
CCn1c(=O)c(C(=O)CN(C)CC(=O)Nc2ccccc2Br)c(N)n(Cc2ccccc2)c1=O,i,-7.2,1.1,x,0.68,5%,6.7
O=C(COC(=O)c1ccccc1)Nc1cccc(S(=O)(=O)N2CCOCC2)c1,i,5.4,-2.7,-3.1,0.68,-4%,0.5
Cc1nc2ccc(Cl)cc2n1C,i,-3.9,-1.1,x,x,5%,x
O=C1N=c2ccccc2=C1c1sc(Nc2cccc(O)c2)nc1O,i,1.3,1.1,-2.3,0.66,x,0.2
CC(C)Oc1ccc(C(=O)NC2CCSc3ccccc32)cc1 (stereo not drawn),i,4.2,-0.3,3.4,0.71,x,5.1
Cc1ccc(S(=O)(=O)NNC(=O)c2cnn(-c3ccccc3)c2C(F)(F)F)cc1,i,-2.8,x,-2.6,0.67,-4%,7.0
CCCc1ccc(-c2cc(C(=O)N/N=C/c3ccc([N+](=O)[O-])o3)c3ccccc3n2)cc1,x,4.9,x,-2.8,x,12%,x
Cc1ccc(/C=C/S(=O)(=O)NCc2ccc(F)cc2)cc1,i,-1.3,-2.0,u,0.66,-8%,4.8
CC(=O)c1ccc(NC(=O)Oc2ccccc2)cc1,x,1.8,x,-1.6,0.8,30%,3.5
O=C(CC(c1ccc(F)cc1)c1ccco1)Nc1nccs1 (stereo not drawn),i,2.6,1.2,-4.9,0.68,x,0.4
COC(=O)Nc1ccc(OC)c(OC)c1,x,-0.5,x,-2.5,0.7,3%,0.6
O=C(CSCc1cccc(F)c1)NCc1ccccc1,i,-2.1,-0.4,-2.9,0.72,-1%,2.5
Cc1ccc(S(=O)(=O)NCC2CCC(C(=O)NCc3cccnc3)CC2)cc1 (stereo not drawn),i,-4.8,-3.0,2.6,0.66,-2%,-3.9
COc1ccc(C(=O)COC(=O)CNC(=O)c2cc(OC)cc(OC)c2)cc1,i,-1.9,-2.2,1.1,0.63,-2%,1.3
O=C(O)CCCn1ccc2cc(S(=O)(=O)N3CCCC3)ccc21,i,4.7,1.1,1.2,0.7,x,4.7
Cc1ccnc(N2CCC(C(=O)Nc3ccc4c(c3)CCC4)CC2)n1,x,1.6,x,-0.5,0.68,7%,-6.7
CCCn1nnnc1NC(=O)c1ccc(C)cc1Cl,i,2.7,8.7,-3.1,0.65,7%,2.3
O=C(COC(=O)c1cccnc1Cl)Nc1cccc(S(=O)(=O)N2CCOCC2)c1,i,4.3,1.3,x,0.66,4%,-1.1
CC(Oc1ccc(Cl)cc1Cl)c1nc(-c2ccc(NC(=O)c3ccco3)cc2)no1 (stereo not drawn),x,1.6,x,3.3,0.71,-3%,5.0
CC(=O)N1c2ccccc2N=C(c2ccc(C(F)(F)F)cc2)C1C(=O)NC1CCCC1 (stereo not drawn),i,-1.2,1.6,x,x,x,x
CCc1ccc2nc3nc(C)cc(C)c3c(N)c2c1,i,0.7,-43,149*,0.65,-4%,i
COc1cc2[nH]c3c(N4CCC(C(N)=O)CC4)ncnc3c2cc1OC,x,x,x,5.4,0.75,-4%,-22
NC(=O)c1ccccc1NS(=O)(=O)c1cccs1,x,1.0,x,4.4,0.68,3%,-1.9
COC(=O)c1c(NC(=O)c2ccc(N(C)S(=O)(=O)c3ccc(C)cc3)cc2)sc2c1CCCC2,i,-2.7,2.3,-9.5,0.75,x,-301
O=c1cc(C(F)(F)F)nc(-n2[nH]c3c(c2=O)CCCC3)[nH]1,x,4.0,x,2.4,0.66,25%,-1.4
Cn1c(=O)c2sccc2n2c(CCCC(=O)NCCc3ccccc3)nnc12,i,-3.5,-1.6,4.9,0.68,x,1.2

Of the compounds above, 2 contain a COOH group.
mol,FGF22 binding,HNF4A DNA FP,AF4-AF9 inh,RanGTP-Imp inh,Ecoli growth,Vif TR-FRET,UCH37 inh
O=C(Nc1ccccc1C(=O)O)c1cc(S(=O)(=O)Nc2ccccc2)ccc1Cl,+,2.5,-4.2,-1.8,x,x,x
O=C(O)CCCn1ccc2cc(S(=O)(=O)N3CCCC3)ccc21,i,4.7,1.1,1.2,0.7,x,4.7

(further entries)
mol,FGF22 binding,HNF4A DNA FP,AF4-AF9 inh,RanGTP-Imp inh,Ecoli growth,Vif TR-FRET,UCH37 inh
COc1ccc(C(=O)NCC(=O)NCC(c2ccco2)N(C)C)cc1OC (stereo not drawn),i,-1.3,3.8,-0.6,0.69,26%,-2.5
O=C(CSc1nnc(NC(=O)c2ccccc2F)s1)NCc1ccc(F)cc1,i,2.2,-3.0,5.9,0.75,-2%,-3.9
CC1(C(=O)N2CCN(c3ccc([N+](=O)[O-])cc3)CC2)CC1(Cl)Cl (stereo not drawn),i,0.9,0.8,-5.3,0.68,2%,6.3
Cc1ccc(CNC(=O)c2c(-c3ccccc3Cl)noc2C)cc1,i,3.1,-1.0,5.0,0.68,7%,1.0
CCCOc1ccc(-c2c(C(=O)N/N=C/c3ccc(C)cc3)nnn2-c2nonc2N)cc1,i,0.9,0.5,-0.3,x,17%,x
Cc1ccccc1N/N=C/c1ccc(C#N)cc1,i,4.4,4.3,-1.8,x,17%,x
O=C(CCSc1nc(-c2ccco2)cc(C(F)(F)F)n1)NCCc1ccccc1,x,1.0,x,-3.7,0.73,-3%,0.2
CN(C)CCNC(=O)C1CCN(S(=O)(=O)c2ccc3ccccc3c2)CC1,i,-5.3,-1.1,u,x,x,x
O=P(c1ccccc1)(c1ccccc1)N(c1ccccc1)c1ccccc1,x,2.1,x,-1.2,0.71,x,0.6
Cc1[nH]c2ccccc2c1C(c1ccncc1)N1CCN(c2ccccn2)CC1 (stereo not drawn),i,-3.5,4.2,6.4,x,-14%,x
CCCCNC(=O)C1(C)CCCCN1C(=O)c1oc2ccccc2c1C (stereo not drawn),i,-0.6,2.4,x,x,x,x
O=C(CSCc1ccc(Cl)cc1Cl)Nc1ccc(O)cc1C(=O)O,i,1.2,-3.8,-1.7,0.7,x,-0.4
CC(C)C(=O)Nc1ccc(Oc2ccc3c(c2)C(=O)NC3=O)cc1,i,3.9,-4.3,3.4,0.66,x,2.6
Cc1ccc(-c2csc(N)n2)s1,x,2.4,x,-1.2,0.66,6%,5.0
O=C(Cc1ccccc1)Nc1ccc(Cl)cn1,i,-3.1,7.1,-0.2,0.6,4%,3.1
O=C(NNC(=O)C1CCC1)c1cccc(Cl)c1,i,2.4,-7.0,x,0.69,-4%,1.3
COc1ccc(C2(C)CC(C)(C)Nc3ccccc32)cc1 (stereo not drawn),i,-1.9,5.5,1.6,0.72,9%,8.0
COc1ccc(/C=C/C(=O)N2CCN(C)CC2)cc1S(=O)(=O)N1CCCCC1,i,1.4,0.0,77*,0.67,7%,6.4
Cc1cc(N)n(-c2ccc(C)c(C)c2)n1,i,0.7,1.6,-0.5,0.68,7%,0.9
Cc1cccc(N2CCN(C(=O)C3CCCN(S(=O)(=O)c4cnc[nH]4)C3)CC2C)c1 (stereo not drawn),x,-0.9,x,-2.0,0.68,16%,0.0
CCc1ccc(Nc2nnc(SCC(=O)Nc3cccnc3Cl)s2)cc1,i,4.9,7.2,-1.4,0.68,11%,-0.9
CC(=O)Nc1ccc(NC(=O)c2ccc(Cn3cc(Cl)cn3)cc2)cc1,i,1.4,-1.1,-1.0,0.7,0%,6.0

Only part of the results is shown; rates above refer to the full screens.
